# AF4-AF9 inh: inhibitors of AF4 peptide binding to AF9, primary screen, biochemical, AlphaScreen, biotin-AF4 peptide, FLAG-AF9, single point; Protein AF-9 (Homo sapiens), P42568; inhibition, % at 10 µM; actives 0.47% (n = 350,000);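 active means every replicate reaching a set inhibition limit, whatever the replicate mean, cut at about 25% in these data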;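 further: 0% = plate neutral control median and 100% = total signal loss; the record names both 10 and 1 µM as test concentration; the first replicate is given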
# Target sequence (P42568 whole entry, looked up): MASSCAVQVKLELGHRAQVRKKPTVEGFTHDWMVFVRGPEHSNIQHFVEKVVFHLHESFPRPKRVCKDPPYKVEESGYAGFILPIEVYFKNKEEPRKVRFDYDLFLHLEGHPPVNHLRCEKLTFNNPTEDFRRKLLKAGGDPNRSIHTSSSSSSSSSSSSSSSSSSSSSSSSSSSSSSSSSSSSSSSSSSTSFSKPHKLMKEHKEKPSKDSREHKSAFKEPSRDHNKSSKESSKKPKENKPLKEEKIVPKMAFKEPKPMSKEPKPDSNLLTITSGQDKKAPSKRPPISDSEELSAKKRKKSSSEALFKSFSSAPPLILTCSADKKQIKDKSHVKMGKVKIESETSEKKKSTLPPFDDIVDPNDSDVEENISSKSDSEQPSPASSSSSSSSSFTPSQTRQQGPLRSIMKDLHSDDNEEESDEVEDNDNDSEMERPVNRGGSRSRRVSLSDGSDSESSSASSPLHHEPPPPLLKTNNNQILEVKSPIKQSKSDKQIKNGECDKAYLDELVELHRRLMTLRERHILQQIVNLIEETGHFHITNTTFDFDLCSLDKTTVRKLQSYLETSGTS
# rRNA inh HTS: reduced GFP signal of wild-type E. coli, primary screen, bacterial rRNA inhibitor project, GFP/RFP fluorescence, OD600, single point; AID 720706, 2013; E. coli WT GFP vs humanized-ribosome RFP mutants, 24 h; stronger effect = lower value; DMSO median 0, no signal -100; actives 1.6% (n = 350,000); GFP signal change (wild-type ribosome), % (test concentration not listed);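 active means significant combined selectivity score with lowered wild-type GFP, culture density cut under 30%, mutant RFP and density less affected; inactive means any of these conditions unmet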; further: one replicate is shown; some compounds called inactive have numbers as strong as hits
# rRNA inh HTS OD600: also measured in rRNA inh HTS; calls as there; OD600 change, %; measured here: OD600 growth;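 optical density of the mix in the first replicate; 0 = DMSO median and -100 = no signal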
# rRNA inh HTS RFP: second read-out of rRNA inh HTS, no call of its own (marks repeat the call); RFP signal change, %; measured here: RFP humanized mutant strains;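 first replicate; 0 = DMSO median and -100 = no signal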
# Active calls of the source: *; & = joins results of further samples. Only part of the results is shown; rates above refer to the full screens.
# Start of the data: the first three compounds, ahead of the listing:
# Codes – A = AF4-AF9 inh; B = rRNA inh HTS; C = rRNA inh HTS OD600; D = rRNA inh HTS RFP
C[C@H](CO)N1C[C@H](C)[C@@H](CN(C)Cc2ccccc2F)Oc2ncc(/C=C/c3ccccc3)cc2C1=O
  A: 28*; B: -35; C: -66; D: 4.5
O=C(NC[C@H]1N[C@H](CO)[C@@H]1c1ccccc1)c1ccccc1F
  A: -2.4; B: 0; C: 1; D: -2.2
CC(C)NC[C@@H]1[C@@H](c2ccc(C3=CCCCC3)cc2)[C@H](CO)N1C(=O)NC(C)C
  A: 5.8; B: -3; C: -36; D: 34

# The list itself, from the start:
# Codes – A = AF4-AF9 inh; B = rRNA inh HTS; C = rRNA inh HTS OD600; D = rRNA inh HTS RFP
C[C@H](CO)N1C[C@H](C)[C@@H](CN(C)Cc2ccccc2F)Oc2ncc(/C=C/c3ccccc3)cc2C1=O
  A: 28*; B: -35; C: -66; D: 4.5
O=C(NC[C@H]1N[C@H](CO)[C@@H]1c1ccccc1)c1ccccc1F
  A: -2.4; B: 0; C: 1; D: -2.2
CC(C)NC[C@@H]1[C@@H](c2ccc(C3=CCCCC3)cc2)[C@H](CO)N1C(=O)NC(C)C
  A: 5.8; B: -3; C: -36; D: 34
CS(=O)(=O)Nc1ccc2c(c1)[C@H]1C[C@H](CC(=O)NCC(F)(F)F)O[C@H](CO)[C@H]1O2
  A: -8.4; B: 6; C: 4; D: -0.3
O=C(C[C@H]1C[C@H]2c3cc(NC(=O)C4CCC4)ccc3O[C@H]2[C@@H](CO)O1)NCc1cccnc1
  A: -13; B: -3; C: 2; D: -3.3
C[C@H]1CN([C@@H](C)CO)C(=O)c2cc(NC(=O)Nc3ccc(C(F)(F)F)cc3)ccc2O[C@@H]1CN(C)Cc1ccc(C(F)(F)F)cc1
  A: -1.1; B: -4; C: 5; D: -2.8
CO[C@H]1CN(C)C(=O)c2ccc(NC(=O)Nc3ccccc3F)cc2OC[C@H](C)NC[C@@H]1C
  A: -1.2; B: 0; C: 4; D: -2.7
CCN(c1cccc(C)c1)S(=O)(=O)c1cc2[nH]c(=O)c(=O)[nH]c2cc1C
  A: -3.7; B: 5; C: 4; D: 0.3
CC(C)CC#Cc1ccc([C@@H]2[C@H]3CN(C(=O)NC4CCCCC4)CC(=O)N3[C@H]2CO)cc1
  A: 3.3; B: -15; C: -38; D: 28
O=C(Nc1cccc(F)c1)N1CCCCN2[C@@H](CO)[C@H](c3ccc(C#Cc4ccccc4)cc3)[C@@H]2C1
  A: 1.5; B: -54; C: -51; D: -4.5
Cc1ccccc1-c1ccc(C2[C@@H]3CN(C(=O)c4ccc(F)cc4)C[C@H]2N3)cc1 (some centres not stated)
  A: -2.8&4.0; B: -55&-54; C: -79&-79; D: -9.4&-12
C[C@@H]1CN([C@@H](C)CO)C(=O)Cc2cc(NC(=O)Nc3cccc4ccccc34)ccc2O[C@H]1CN(C)Cc1ccc(C(F)(F)F)cc1
  A: 1.7; B: 4; C: 5; D: 0.6
COc1ccc(NC(=O)N(C)C[C@H]2Oc3c(NS(C)(=O)=O)cccc3C(=O)N([C@@H](C)CO)C[C@@H]2C)cc1
  A: -2.2; B: -3; C: 0; D: -1.4
C[C@@H]1CN([C@H](C)CO)C(=O)c2cccc(NC(=O)c3cnccn3)c2O[C@@H]1CN(C)CC1CC1
  A: -2.9; B: 0; C: 1; D: -1.9
C[C@H](CO)N1C[C@H](C)[C@H](CN(C)C(=O)c2ccncc2)OCCCC[C@H](C)Oc2ccc(NC(=O)Cc3ccccc3)cc2C1=O
  A: 9.9; B: 0; C: -9; D: -1.2
C[C@@H]1CN([C@H](C)CO)C(=O)c2cc(NS(=O)(=O)c3ccccc3)ccc2O[C@@H](C)CCCCO[C@@H]1CN(C)S(=O)(=O)c1ccccc1
  A: 0.1; B: -2; C: -4; D: 0.5
CCCN1[C@H](C(=O)NCC)[C@@H](CO)[C@@H]2Cn3c(ccc(C4=CCCC4)c3=O)[C@@H]21
  A: -0.4; B: 1; C: -1; D: -0.5
CC(=O)N1[C@@H]2Cn3c(ccc(C4=CCCCC4)c3=O)[C@H]1[C@@H](C(=O)NC1CCCC1)[C@@H]2CO
  A: -12; B: -2; C: -4; D: -3.4
C[C@@H]1CN([C@@H](C)CO)C(=O)Cc2cc(NC(=O)Nc3ccccc3)ccc2O[C@H]1CN(C)Cc1ccc(C(F)(F)F)cc1
  A: -0.5; B: 3; C: 8; D: 1.3
O=C(C[C@@H]1CC[C@H]2[C@@H](COC[C@@H](O)CN2C(=O)c2ccc3c(c2)OCO3)O1)NC1CCC1
  A: -1.8; B: 2; C: -2; D: 2.2
COc1ccc(NC(=O)N(C)C[C@H]2Oc3c(NC(=O)Nc4c(C)noc4C)cccc3C(=O)N([C@@H](C)CO)C[C@@H]2C)cc1
  A: -2.2; B: 3; C: 6; D: -1.1
CO[C@H]1CN(C)C(=O)c2cc(NC(=O)NC(C)C)ccc2OC[C@H](C)N(C(=O)CN(C)C)C[C@H]1C
  A: 2.8; B: 5; C: 7; D: -0.9
C[C@H]1CN([C@@H](C)CO)C(=O)c2cccc(NS(=O)(=O)c3ccc(Cl)cc3)c2O[C@H]1CN(C)Cc1ccc(Oc2ccccc2)cc1
  A: 2.3; B: 1; C: 8; D: 1.1
NC(Cc1ccc(Cl)cc1)c1csc(NC(=O)Nc2ccccc2-c2ccccc2)n1 (configuration not stated)
  A: 3.1; B: -25; C: -31; D: -9.4
COc1ccc(S(=O)(=O)N[C@@H]2CC[C@H](CC(=O)NCc3ccccc3F)O[C@H]2CO)cc1
  A: 0.0; B: 1; C: 7; D: 0.9
COc1ccc(CN(C)C[C@H]2OCCCC[C@@H](C)Oc3ccc(NC(=O)Nc4ccc(C(F)(F)F)cc4)cc3C(=O)N([C@@H](C)CO)C[C@@H]2C)cc1
  A: 15; B: -14; C: -4; D: 12
COc1ccc(C(NC(=O)C2CCN(CCc3ccccc3)CC2)c2ccccn2)cc1 (configuration not stated)
  A: -0.2; B: 21; C: 16; D: 2.9
OC[C@@H]1[C@H](c2ccc(C3=CCCC3)cc2)[C@H]2CN(Cc3cccnc3)CCCCN12
  A: 2.6; B: 2; C: 14; D: 2.8
C[C@@H]1CN([C@H](C)CO)C(=O)c2cc(-c3ccc(C#N)cc3)cnc2O[C@H]1CN(C)CC1CCCCC1
  A: 2.0; B: -1; C: 9; D: -0.8
CC(=O)NC(C)(c1ccccc1)c1nc(-c2ccc(F)c(Cl)c2)cs1 (configuration not stated)
  A: -1.7; B: 5; C: -19; D: 1.0
Cc1ccc(-c2ccc3c(c2)O[C@@H](CN(C)C(=O)Nc2ccc(C(F)(F)F)cc2)[C@H](C)CN([C@@H](C)CO)S3(=O)=O)cc1
  A: -0.1; B: -2; C: 9; D: 4.5
Cc1ccc(S(=O)(=O)N(C)C[C@@H]2OCCCC[C@@H](C)Oc3ccc(NC(=O)c4ccccc4)cc3C(=O)N([C@@H](C)CO)C[C@H]2C)cc1
  A: -0.9; B: -7; C: -10; D: -0.6
CC(C)NC(=O)Nc1ccc2c(c1)C(=O)N([C@H](C)CO)C[C@@H](C)[C@@H](CN(C)C(=O)NC1CCCCC1)OCCCC[C@@H](C)O2
  A: 0.4; B: 0; C: -4; D: -1.6
C/C=C/c1ccc2c(c1)O[C@H](CN(C)C(=O)Cc1ccccn1)[C@@H](C)CN([C@H](C)CO)S2(=O)=O
  A: -4.1; B: 4; C: 4; D: -2.0
O=C(C[C@H]1CC[C@H]2[C@@H](COC[C@@H](O)CN2CCC(F)(F)F)O1)NCC1CC1
  A: -0.2; B: 11; C: 22; D: -0.2
CNC[C@H]1OCCCC[C@H](C)Oc2ccc(NS(=O)(=O)c3ccc(OC)cc3)cc2C(=O)N([C@@H](C)CO)C[C@@H]1C
  A: -0.8; B: 0; C: -13; D: -0.7
O=C(NCc1ccncn1)[C@H]1[C@H](CO)[C@H]2Cn3c(ccc(-c4ccc(F)cc4)c3=O)[C@H]2N1CC1CC1
  A: 6.3; B: -2; C: 1; D: 3.9
Cc1ccc(S(=O)(=O)N[C@@H]2C=C[C@H](CC(=O)NCc3ccc(Cl)c(Cl)c3)O[C@H]2CO)cc1
  A: -2.1; B: -1; C: 0; D: 1.7
CC(C)(C)[S@@](=O)N1Cc2cc(C(=O)NCc3ccccc3F)nc(-c3cccc(-c4ccncc4)c3)c2[C@H]1CCO
  A: -4.4; B: -6; C: -5; D: 4.9
CC(C)(C)[S@](=O)N1Cc2cc(C(=O)N3CCCCC3)nc(-c3cccc(C4=CCCC4)c3)c2[C@@H]1CCO
  A: -0.6; B: -1; C: 11; D: 4.4
CCc1nc2c(OCc3ccc(C(F)(F)F)cc3)cccn2c1N(C)C(=O)CC(C)C
  A: 2.4; B: -6; C: -22; D: 4.6
C[C@@H]1CN([C@H](C)CO)S(=O)(=O)c2ccc(C#CC3CC3)cc2O[C@H]1CN(C)C(=O)c1ccccc1
  A: 4.5; B: -32; C: -56; D: -7.5
O=C([C@@H]1[C@@H](CO)[C@@H]2Cn3c(ccc(-c4ccccc4)c3=O)[C@H]1N2)N1CCCCC1
  A: -0.7; B: -3; C: 5; D: -0.9
COc1ccc2c3c(n(C)c2c1)[C@H](CO)N(C(=O)CN1CCOCC1)CC31CN(Cc2ccncc2)C1
  A: 0.8; B: 2; C: 4; D: -5.0
O=C(C[C@@H]1CC[C@H]2[C@@H](COC[C@H](O)CN2Cc2ccccc2F)O1)N[C@@H]1CCN(Cc2ccccc2)C1
  A: 5.5; B: 3; C: 4; D: -2.9
O=c1ccn([C@@H]2O[C@H](CNCc3cccn3-c3ccncc3)[C@@H](O)[C@H]2O)c(=O)[nH]1
  A: 1.9; B: 0; C: 2; D: 2.3
COCC(=O)N1C[C@H](C)[C@@H](OC)CN(C)C(=O)c2cc(NC(=O)NC(C)C)ccc2OC[C@H]1C
  A: -1.3; B: 0; C: -1; D: 0.1
C[C@@H]1CN([C@@H](C)CO)C(=O)c2cc(C3=CCCCC3)cnc2O[C@H]1CN(C)Cc1ccccc1C(=O)O
  A: -4.8; B: 4; C: 1; D: -0.2
C[C@H]1CN([C@@H](C)CO)C(=O)c2cccc(NC(=O)CCCCCC(=O)Nc3ccccc3N)c2O[C@H]1CN(C)CC1CCCCC1
  A: -0.2; B: -1; C: -2; D: -1.5
CO[C@H]1CN(C)C(=O)c2cc(NC(=O)c3nc4ccccc4s3)ccc2OC[C@H](C)NC[C@H]1C
  A: 1.2; B: -12; C: 0; D: 9.7

# Following part:
# Codes – A = AF4-AF9 inh; B = rRNA inh HTS; C = rRNA inh HTS OD600; D = rRNA inh HTS RFP
O=C(c1ccccc1)N1CC[C@@H]2[C@H](CO)Nc3ccc(C#Cc4ccccc4F)cc3[C@@H]21
  A: -3.8; B: -3; C: 9; D: 7.2
CO[C@@H]1CN(C)C(=O)c2ccc(NC(=O)Nc3ccccc3F)cc2OC[C@@H](C)N(Cc2ccccc2C(=O)O)C[C@H]1C
  A: 0.4; B: -2; C: 0; D: 0.1
O=C(C[C@@H]1CC[C@H]2[C@@H](COC[C@@H](O)CN2C(=O)Nc2ccccc2)O1)NCCCN1CCOCC1
  A: 0.7; B: 0; C: -3; D: 1.1
CCOC(=O)N(C)c1c(CC)nc2c(OCc3ccc(F)c(F)c3)cccn12
  A: 3.6; B: 3; C: -2; D: 7.0
O=C(C[C@@H]1CC[C@@H]2[C@H](COC[C@H](O)CN2S(=O)(=O)c2cccc(F)c2)O1)NCc1ccc2c(c1)OCO2
  A: 3.5; B: -1; C: -17; D: -2.5
CCNC(=O)C[C@H]1C=C[C@H](NC(=O)C2CCC2)[C@H](CO)O1
  A: -3.6; B: 2; C: 1; D: -0.5
Cn1cnc(S(=O)(=O)N2C[C@H](O)COC[C@@H]3O[C@H](CC(=O)NC4Cc5ccccc5C4)CC[C@H]32)c1
  A: 0.9; B: 6; C: 10; D: -1.6
CO[C@H]1CN(C)C(=O)c2cc(NC(=O)C3CCOCC3)ccc2OC[C@@H](C)N(CC2CC2)C[C@@H]1C
  A: -2.7; B: 4; C: 14; D: -3.3
COCC(=O)N1C[C@H](C)[C@@H](OC)CN(C)C(=O)c2cc(NC(=O)c3cnccn3)ccc2OC[C@@H]1C
  A: -0.4; B: -2; C: 5; D: -4.6
COc1ccc(S(=O)(=O)N[C@H]2CC[C@H](CCn3cc(-c4cccc(F)c4)nn3)O[C@@H]2CO)cc1
  A: -0.2; B: -2; C: -8; D: 3.4
C[C@H](O)C#Cc1cnc2c(c1)C(=O)N([C@H](C)CO)C[C@H](C)[C@@H](CN(C)Cc1cccc(C(=O)O)c1)O2
  A: -7.4; B: 8; C: 12; D: -2.5
CC(C)NC(=O)Nc1ccc2c(c1)C(=O)N([C@@H](C)CO)C[C@@H](C)[C@H](CN(C)S(=O)(=O)c1ccccc1)OCCCC[C@@H](C)O2
  A: -1.3; B: -3; C: 0; D: -2.6
C=CCn1c(SCC(=O)Nc2ccc(O)cc2)nc2sc(C)c(C)c2c1=O
  A: 4.0; B: -6; C: -7; D: -0.6
CN(C)c1ccc2c(c1)[C@@H]1C[C@@H](CC(=O)NCc3ccccc3)O[C@H](CO)[C@@H]1O2
  A: 1.3; B: 0; C: -3; D: 2.4
COc1ccc2c3c([nH]c2c1)[C@@H](CO)N(C(=O)Nc1ccc(F)cc1)CC31CN(C(=O)Nc2c(C)noc2C)C1
  A: -12; B: -1; C: 10; D: -1.5

# Assay outcomes (PubChem BioAssay)
